# eIF4H inh: inhibitors of RNA binding by human eIF4H; eIF4H fluorescence polarization binding assay; 290,000 compounds, 0.94% hits; inhibition, % at 35 µM;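 active = 50% or more with normal probe brightness, or confirmed in later tests; inconclusive = above 50% with abnormal brightness, or retests that disagree; inactive = below 50% or failed in later tests; about a fifth of its hits are not listed in these tables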;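 also: calls also rest on retests at 20 µM and on dose response follow-up; 0% = protein and probe with vehicle and 100% = probe without protein; strong numbers were not always called active; many hits fall short of the cut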
# UUG fidelity: alters start codon recognition fidelity in yeast; activity score, % at 18.7 µM; S. cerevisiae UUG-firefly luciferase reporter, luminescence/redox ratio; 350,000 compounds, 0.13% hits; AID 602363;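 active = replicate mean at a twofold rise or more, about +100% in these data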;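 also: firefly luciferase made from a UUG start codon reports start codon fidelity; reporter light over untreated wells divided by growth signal over untreated wells; some hits fall short of that in this replicate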
# MT1-MMP act inh: blocks activation of human MT1-MMP | HT1080 RFP-PRO-GFP cells, GFP/RFP ratio fluorescence, overnight; percent of plate control window, DMSO zero | GFP/RFP ratio change, % at 20 µM | 360,000 compounds, 0.061% hits;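 active = GFP/RFP ratio change of at least 30% with cell ATP level not reduced by more than half and red fluorescence within 50% of control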; also: strong numbers were not always called active
#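 system = RFP-PRO-GFP reporter HT1080 cells | dosing = 20 µM single dose, 1% DMSO | timing = overnight cell settling, then overnight compound exposure, 37 °C, 5% CO2 | read-out basis = GFP/RFP fluorescence ratio | controls = DMSO and RFP-L50D-GFP cell wells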
# Rce1 inh: inhibitors of yeast Ras-converting enzyme | Q03530 | yeast membranes, quenched prenylated peptide cleavage fluorescence | calls only | 290,000 compounds, 0.27% hits | AID 2563;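 active = fall in fluorescence gain of 50% or more versus controls, with final raw signal at or below 3038400; inconclusive = same 50% fall but final raw signal above 3038400; inactive = fall in fluorescence gain under 50%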;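 also: plate controls were neutral control wells for no effect and wells lacking membranes for full effect; tested at 10 µM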
# Target sequence (Q03530 whole entry, looked up): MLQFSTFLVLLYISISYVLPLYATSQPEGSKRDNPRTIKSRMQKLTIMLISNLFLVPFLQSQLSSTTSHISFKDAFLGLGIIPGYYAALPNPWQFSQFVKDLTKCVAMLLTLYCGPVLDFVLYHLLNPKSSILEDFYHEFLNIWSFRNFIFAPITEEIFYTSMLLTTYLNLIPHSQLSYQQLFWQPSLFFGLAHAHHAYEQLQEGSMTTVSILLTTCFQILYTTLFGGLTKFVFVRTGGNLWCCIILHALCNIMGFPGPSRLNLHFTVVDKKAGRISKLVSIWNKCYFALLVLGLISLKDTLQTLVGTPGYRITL
# PABP polyA inh: PABP-poly(A) binding inhibition; 290,000 compounds, 1% hits; inhibition, % at 35 µM; P11940; AID 2014; PABP-poly(A) RNA binding, fluorescence polarization;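 active = 50% or more with normal probe brightness, or confirmed in later tests; inconclusive = above 50% with abnormal brightness, or retests that disagree; inactive = below 50% or failed in later tests; about a fifth of its hits are not listed in these tables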;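 also: calls also rest on retests at 20 µM and on dose response follow-up; controls were probe without protein and protein plus probe with vehicle; some compounds called inactive have numbers as strong as hits; many hits fall short of the cut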
# HIV Env fusion: HIV envelope-mediated fusion inhibition | HeLa-JRFL Env/CEM21 cell fusion, luciferase | 360,000 compounds, 1.1% hits | AID 651610 | inhibition, % at 12.3 µM;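 active = mean replicate inhibition score of at least 50 and every replicate individually at or above 50; inconclusive = only one of the two criteria met; inactive = mean below 50 and not all replicates reaching 50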;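 also: 0% = plate neutral controls and 100% = maraviroc near 300 nM; one replicate is shown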
# CSC inhib: blocks cancer stem cells; cancer stem cell-like cells viability, luminescence; inhibition, % at 7.5 µM; 300,000 compounds, 1.1% hits; AID 2717;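 active = mean at 75% or more and at least half the replicates too; inconclusive = mean and replicates disagree; tested in HMLE shEcad cells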;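 also: 0% = median of negative and 100% = median of positive control wells; the first replicate is given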
# eIF4H inh retest: also measured in eIF4H inh; calls as there; inhibition, %; compound at 20 µM; confirmation average;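 mean of two retest wells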
# PABP polyA inh retest: further read-out of PABP polyA inh, marked with its call; inhibition, %; compound at 20 µM; confirmation repeats;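 mean of two retest wells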
# MT1-MMP act inh RFP: further read-out of MT1-MMP act inh, marked with its call; RFP signal change, %; measured here: RFP expression control read;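 0 = vehicle wells; hits needed this value within 50% of zero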
# * = called active by the depositor; i = inactive; ? = inconclusive; · = no result given.
SMILES,eIF4H inh,UUG fidelity,MT1-MMP act inh,MT1-MMP act inh RFP,Rce1 inh,PABP polyA inh,HIV Env fusion,CSC inhib,others
CC1(C)CC2CC(C)(CN2C(=O)COC(=O)c2ccc(O)cc2O)C1 (stereo unspecified),·,14,-5,-4,·,·,2,-12,
O=C(CNC(=O)c1ccc(S(=O)(=O)N2CCCC2)cc1)N/N=C/c1ccccc1,-12,-7,-4,0,i,4,-21,-1,
CCCOc1ccc(/C(O)=C2/C(=O)C(=O)N(CCN(C)C)C2c2ccc(O)c(OC)c2)cc1 (stereo unspecified),0,·,-1,-1,i,0,·,·,
O=C(COc1cc2oc(=O)c3c(c2cc1Cl)CCC3)NCc1ccncc1,-12,·,-5,-4,i,3,1,-3,
Cc1nnc(NCc2ccco2)c2ccccc12,-11,-4,-7,-3,i,-8,·,·,
Cc1cccc(-n2c(C)cc(C(=O)NC3CCCCC3)c2C)c1,-3,-20,-1,-10,i,3,-19,10,
COc1ccc(CN2C(=O)NC3(CCCCCC3)C2=O)cc1F,0,-13,6,8,i,2,·,-7,
O=c1c2cc(N3CCOCC3)ccc2[nH]c(=S)n1Cc1ccccc1Cl,3,·,2,-3,i,8,4,33,
O=C(NCc1ccon1)c1ccc(OC2CCN(CCc3ccccc3)CC2)cc1,11,-8,3,4,i,0,0,8,
CC(C(=O)NC1CCCC1)N(C(=O)c1ccc(-c2ccccc2)[nH]1)c1ccccc1F (stereo unspecified),-8,-2,-12,-8,i,-4,-15,-1,
COc1ccc(CCNC(=O)c2cccc(S(=O)(=O)N3CCCC3)c2)cc1,·,-6,2,-3,·,·,-4,·,
CC(C)c1ccc(NC(=O)COC(=O)C2CCCCC2)cc1,·,-47,0,3,·,·,·,-8,
O=[n+]1c2c(n([O-])c3cc(Br)ccc31)CCC2,-7,-2,2,5,i,48,·,-12,
C=CCN1C(=O)c2ccc(C(=O)OCC(=O)Nc3ccccc3OC)cc2C1=O,·,-15,1,5,·,·,-248,-16,
CCOc1cc(/C=N/Nc2ccccc2Cl)ccc1OCC(=O)O,10,-1,0,2,·,0,-15,-4,
CCOC(=O)CSc1nc2sc3c(c2c(=O)[nH]1)CC(C)(CC)OC3 (stereo unspecified),-1,-12,3,7,i,3,11,13,
COc1ncccc1-c1nnn(-c2ccccc2)n1,-18,-17,1,4,i,-7,-153,-16,
Clc1cccc(/C=N/Nc2nc(Cl)nc3ccccc23)c1,11,2,3,3,i,-7,-286,9,
O=C(O)c1ccc2c(=O)n3c(nc2c1)/C(=C/c1ccc(Cl)c(Cl)c1)CC3,2,-7,5,2,i,33,9,-17,
Cc1ccc(NC(=O)CN2CCc3cc4c(cc3C2)OCCCO4)cc1C,-12,-10,2,5,i,-2,10,-2,
CC(=O)Nc1ccc(NC(=O)c2ccc(CSc3ccccc3)o2)cc1,-6,·,3,-2,i,1,7,5,
COC(=O)c1c(SCC(=O)Nc2ccc(C)c(C)c2)nc(=O)[nH]c1C,-6,-12,-1,1,i,3,8,-7,
COc1ccc(CCNC(=O)COC(=O)C2CCCCC2)cc1,0,·,3,-1,i,-6,-21,-6,
COc1ccc(S(=O)(=O)N2CCOC2CNC(=O)C(=O)NCc2ccc3c(c2)OCO3)cc1 (stereo unspecified),0,-10,0,-2,i,-9,-3,-1,
Cc1ccc(S(=O)(=O)N2CCC(C(=O)OCCOc3cccc(C)c3)CC2)cc1,·,-4,1,0,·,·,-6,·,
# Continued:
SMILES,eIF4H inh,UUG fidelity,MT1-MMP act inh,MT1-MMP act inh RFP,Rce1 inh,PABP polyA inh,HIV Env fusion,CSC inhib,others
Cc1c(CNC2CCCC(C)C2C)c(C(=O)O)c(C)n1Cc1ccccc1 (stereo unspecified),15,-8,-1,1,i,1,0,19,
CN1CCN(CC(=O)N/N=C/c2ccc(F)c(F)c2)CC1,5,7,4,9,i,?,·,-10,
NC(=O)CC[C@H](NC(=O)c1ccc(F)cc1)C(=O)OCC(=O)Nc1ccc(N2CCOCC2)cc1,-5,·,2,4,i,-5,5,-6,
O=C(CCl)Nc1cn(-c2ccccc2)nc1-c1ccccc1,5,-20,-10,-7,i,4,-2,21,
Cn1c(O)c(/C=N/Nc2ccccc2)c(=O)n(C)c1=O,-7,·,-2,6,i,-1,9,89*,
CCN(CC)CC(C)OC(=O)COc1ccc(OC)cc1 (stereo unspecified),-5,-24,1,6,i,-4,-7,-8,
CCCCCCC[C@H](N)[C@H](O)C(=O)N(C)[C@@H](CCS(C)=O)C(=O)N[C@@H](Cc1ccc(O)cc1)C(=O)N[C@@H](Cc1ccc(O)cc1)C(=O)O (stereo partly specified),-5,27,·,·,i,1,-23,-7,
CCOC(=O)c1ccc2ncc(C(=O)OCC)c(NCCN3CCOCC3)c2c1,-7,6,-2,0,i,4,-5,-7,
Nc1[nH]c(N=NC(=O)c2ccc(F)cc2)c2ccccc12,-2,·,2,0,i,2,-22,-7,
O=C(CSc1cccc[n+]1[O-])Nc1cc(S(=O)(=O)N2CCOCC2)ccc1N1CCOCC1,-1,·,7,3,i,-2,·,-12,
CC(C)=CC(=O)Nc1ccc(Br)cc1,-4,·,-4,1,i,-9,·,0,
O=C(Nc1ccccc1)Nc1ccccc1C(=O)NCc1ccco1,5,-11,4,-5,i,12,·,4,
CN(C)CC(C)(C)CNCc1cc(=O)oc2ccc3ccccc3c12,-10,-20,3,7,i,-7,-4,1,
COc1cc(C(C(=O)NC(C)(C)C)N(C(=O)CNC(=O)c2cccs2)c2ccc(C(C)C)cc2)cc(OC)c1OC (stereo unspecified),6,-8,1,-1,·,-9,·,·,
Cc1ccccc1CCN(C(=O)Cn1nnc2ccccc21)C(C(=O)NCC1CCCO1)c1nc2ccccc2n1C (stereo unspecified),-2,·,-5,-6,i,6,-10,-20,
C=CCN(C(=O)CNS(=O)(=O)c1ccccc1)C(C(=O)NCCOC)c1ccncc1 (stereo unspecified),3,-1,-9,0,i,6,·,-18,
Cn1cc(Cl)c(C(=O)Nc2nc3ccccc3s2)n1,-11,-20,4,0,i,2,-74,-3,
O=C(NCC(=O)N(c1ccccc1)C(C(=O)NC1CCCC1)c1cccnc1)c1cccs1 (stereo unspecified),-4,-19,1,3,i,-5,?,12,
CCC1(c2ccc(F)cc2)NC(=O)N(CC(=O)NC2CC2)C1=O (stereo unspecified),·,-8,-5,0,i,·,·,-19,
O=C(NNC(=O)c1ccc(NC(=O)c2ccccc2)cc1)Nc1ccccc1,1,·,-1,4,i,1,20,1,
O=C(COc1ccccc1Cl)Nc1ccc2c(c1)OCCO2,-8,-6,3,-5,i,-3,·,-4,
COc1ccc(-c2cc(C(F)(F)F)nc(SCC(=O)Nc3sc4c(c3C#N)CCC4)n2)cc1,4,·,1,-1,i,-3,·,-3,
Cc1cccc(C2CC(c3ccccc3)Nc3nc(N)nn32)c1 (stereo unspecified),2,-18,4,4,i,0,-8,-4,
CC(C)c1ccc(NC2CCCN(C(=O)c3ccccc3-c3ncc[nH]3)C2)cc1 (stereo unspecified),-7,-17,0,-8,i,-17,6,6,
CCCNC(=O)C1CC(c2ccccc2C(F)(F)F)=NO1 (stereo unspecified),·,-4,1,2,i,·,6,-8,

# At a glance, some entries already given.
SMILES,eIF4H inh,UUG fidelity,MT1-MMP act inh,MT1-MMP act inh RFP,Rce1 inh,PABP polyA inh,HIV Env fusion,CSC inhib,others
CC1(C)CC2CC(C)(CN2C(=O)COC(=O)c2ccc(O)cc2O)C1 (stereo unspecified),·,14,-5,-4,·,·,2,-12,
O=C(CNC(=O)c1ccc(S(=O)(=O)N2CCCC2)cc1)N/N=C/c1ccccc1,-12,-7,-4,0,i,4,-21,-1,
CCCOc1ccc(/C(O)=C2/C(=O)C(=O)N(CCN(C)C)C2c2ccc(O)c(OC)c2)cc1 (stereo unspecified),0,·,-1,-1,i,0,·,·,
O=C(COc1cc2oc(=O)c3c(c2cc1Cl)CCC3)NCc1ccncc1,-12,·,-5,-4,i,3,1,-3,

# Other structures follow:
SMILES,eIF4H inh,UUG fidelity,MT1-MMP act inh,MT1-MMP act inh RFP,Rce1 inh,PABP polyA inh,HIV Env fusion,CSC inhib,others
COc1ccc(CCC(=O)NCCS(=O)(=O)N2CCN(c3ccccc3OC)CC2)cc1,0,6,0,-11,i,-1,4,5,
COc1cc(S(=O)(=O)N(Cc2ccco2)C2CCCC2)ccc1-n1cnnn1,-9,16,-1,-3,i,-2,·,-7,
COc1cc(-c2n[nH]c(=S)n2C(C)c2ccccc2)cc(OC)c1OC (stereo unspecified),0,-3,1,1,i,9,6,11,
COc1ccc(S(=O)(=O)CC(O)CN2CCCC2=O)cc1 (stereo unspecified),5,-29,5,2,i,8,-95,3,
CCOC(=O)c1c(O)cc(C)cc1Nc1ccccc1,2,-9,0,-1,i,-2,12,-1,
COc1ccc2[nH]c(=O)c(CN(C(=O)c3cccnc3)c3cc(C)ccc3C)cc2c1,-11,·,-6,2,i,4,16,-21,
O=C(NCCCCc1ccccc1)C1CCCC1,0,-6,-1,-2,i,-3,3,·,
COc1ccc(-c2nc(C#N)c(NCCc3ccccc3)o2)cc1OC,-1,17,8,-5,i,-21,·,22,
Cc1ccc(S(=O)(=O)CCC(=O)Nc2nnc(CC(C)C)s2)cc1,·,·,1,0,i,·,5,-15,
Cc1sc(NC(=O)CSc2nnnn2C(C)C)c(C#N)c1C,48,·,1,-2,i,33,6,-5,
Cc1ccc(NC(=O)C2(C)CCN2C(=O)Cc2cc(F)ccc2F)cc1 (stereo unspecified),·,19,14,-3,·,·,5,·,
COc1ccc2ccc3c(c2c1)N=CC1(O3)N(C)c2ccccc2C1(C)C (stereo unspecified),1,-6,2,-13,i,-7,·,17,
O=c1ccn(CCc2c[nH]c3ccccc23)c2c1CCCC2,58,5,3,0,i,-6,27,-8,eIF4H inh retest=-11;PABP polyA inh retest=-4
Cc1sc2nc(CN(C(=O)NCc3ccccc3)C3CCCC3)[nH]c(=O)c2c1C,-5,9,6,-2,i,-4,6,5,
Nc1nonc1-n1nnc(C(=O)N/N=C/c2ccncc2)c1CSc1ccccc1,-13,-14,7,-1,i,2,9,1,
Clc1ccccc1Cc1noc(CN2CCCCC2c2ccccn2)n1 (stereo unspecified),-13,·,5,3,·,10,23,-9,
COc1cccc(N2CCN(c3ccc4nnc(CCC(=O)Nc5ccc(OC)c(OC)c5)n4n3)CC2)c1,-2,-5,8,6,i,-8,0,-9,
O=C(NCC1CC1)c1ccc2c(c1)S(=O)(=O)c1cc(Cl)ccc1C2=O,·,-19,1,4,·,·,-11,-15,
Clc1ccc(-c2nnc(CSc3nnc(-c4cccs4)o3)o2)cc1,-4,·,-1,2,i,3,·,-5,
COc1ccc(C(OCC(O)CN(C)C2CCCCC2)c2ccc(OC)cc2)cc1 (stereo unspecified),9,44,5,6,i,4,11,·,
Cc1c(N(C)C)nc2ccccc2c1N,-7,-5,0,2,i,9,·,-2,
CN(CC(=O)Nc1cccc(F)c1)CC(=O)Nc1ccc(Cl)cc1[N+](=O)[O-],0,·,1,3,i,-6,-49,10,
O=C(CS(=O)(=O)Cc1ccccc1)Nc1ccc(Cl)cn1,-9,5,10,7,i,16,-44,16,
Clc1cc(/C=N\NC2=NCCN2)cc(Cl)n1,·,-18,-1,-2,i,·,-1,-16,
O=C(CSc1nc(=O)n2cc(Cl)ccc2n1)NCCc1ccccc1,·,-11,-9,6,i,·,1,-8,
